FGF22 binding: binders of recombinant human FGF22 by thermal shift. 340,000 tested, 1.5% active. Q9HCT0. AID 651658. calls only at 9.99 µM. SYPRO orange fluorescence; percent of sucrose octasulfate shift, DMSO zero;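 active = melting point raised past a set limit in the mean and every replicate; inconclusive = no clear call; three in four hits are not shown here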
HNF4A DNA FP: change in binding of human HNF4 alpha to DNA | P41235 | 360,000 tested, 0.3% active | HNF4a-FITC DNA binding, fluorescence polarization, 1 h | activity change, % at 10 µM; in the data active = activity change above about 30%, passing the limit was not always enough;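 also: controls were the assay level and a saturating level of protein; the project sought stronger binding though the title names inhibitors; some compounds called inactive have numbers as strong as hits; positive values seem to mean higher polarization but the record does not say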
Target sequence (P41235 whole entry, looked up): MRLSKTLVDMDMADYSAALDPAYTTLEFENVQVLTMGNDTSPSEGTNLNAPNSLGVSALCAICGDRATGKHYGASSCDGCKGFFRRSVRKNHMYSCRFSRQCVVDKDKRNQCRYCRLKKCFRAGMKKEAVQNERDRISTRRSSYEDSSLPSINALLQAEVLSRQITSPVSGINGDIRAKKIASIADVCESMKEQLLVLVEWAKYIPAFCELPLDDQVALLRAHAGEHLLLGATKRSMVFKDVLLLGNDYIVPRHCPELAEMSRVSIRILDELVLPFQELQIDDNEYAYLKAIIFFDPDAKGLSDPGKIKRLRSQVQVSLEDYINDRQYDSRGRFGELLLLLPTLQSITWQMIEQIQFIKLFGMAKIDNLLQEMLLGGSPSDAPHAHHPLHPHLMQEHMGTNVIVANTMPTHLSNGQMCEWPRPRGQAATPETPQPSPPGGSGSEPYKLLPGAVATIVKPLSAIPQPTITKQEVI
UCH37 DUB inh: inhibitors of human deubiquitinating enzyme UCH37. purified proteasome/UCH37, Ub-AMC cleavage fluorescence. AID 588478. inhibition, % (concentration not given with the values). 330,000 tested, 0.33% active;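 active = mean of two replicates above 20%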;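 also: 0% = compound-free wells with enzyme and 100% = wells lacking proteasome; stock transfer was 100 nL into about 20 µL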
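system = Proteasome-associated human UCH37 deubiquitinase | amount = 0.15 nM proteasome as dispensed | medium = pH 7.4 Tris-HCl (50 mM) with ovalbumin, ATP-MgCl2, DTT | incubation = 30 min preincubation with enzyme, 25 min cleavage at room temperature | detection = AMC fluorescence 355/460 nm | read-out basis = percent inhibition | controls = no-proteasome and no-compound wells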
Ecoli rRNA inh: inhibits bacterial ribosomal RNA function over humanized ribosomes. GFP signal change (wild-type ribosome), % (concentration not given with the values). E. coli WT GFP vs humanized-ribosome RFP mutants, fluorescence, 24 h; stronger effect = lower value; DMSO median 0, no signal -100. 350,000 tested, 1.6% active;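 active = significant combined selectivity score with lowered wild-type GFP, culture density cut under 30%, mutant RFP and density less affected; inactive = any of these conditions unmet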; also: one replicate is shown; some compounds called inactive have numbers as strong as hits
Beta2AR agonist: agonists of human beta-2 adrenergic receptor inducing internalization; P07550; Am2.2-beta2AR cells, FAP receptor internalization, flow cytometry; reference of the scale not given here; response, % (concentration not given with the values); 340,000 tested, 0.43% active;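 active = response above a set limit, near 3 SD of response in nonfluorescent compounds, cut at about 42% in these data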;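 also: stock transfer was 100 nL into about 11 µL; a reference agonist was the positive control; negative values mostly stem from fluorescent compounds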
Target sequence (P07550 whole entry, looked up): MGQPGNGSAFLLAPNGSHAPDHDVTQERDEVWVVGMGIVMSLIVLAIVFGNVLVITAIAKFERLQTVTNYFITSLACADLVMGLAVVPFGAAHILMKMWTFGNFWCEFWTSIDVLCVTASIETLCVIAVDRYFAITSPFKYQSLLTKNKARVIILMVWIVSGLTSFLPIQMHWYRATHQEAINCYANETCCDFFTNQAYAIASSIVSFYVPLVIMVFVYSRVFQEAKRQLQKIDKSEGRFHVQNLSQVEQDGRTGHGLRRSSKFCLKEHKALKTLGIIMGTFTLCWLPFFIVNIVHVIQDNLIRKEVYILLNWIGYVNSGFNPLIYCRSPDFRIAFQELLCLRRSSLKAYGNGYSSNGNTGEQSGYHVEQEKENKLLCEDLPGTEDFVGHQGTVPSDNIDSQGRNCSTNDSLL
ALR H2O2 inh: blocks human ALR sulfhydryl oxidase activity | inhibition, % (no concentration beside the values) | purified ALR, DTT oxidation, H2O2 HRP-luminol luminescence | 290,000 tested, 3.8% active | P55789;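 active = mean and each replicate at 75% or more; inconclusive = only one of the two met; inactive = neither met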;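 also: stock transfer was 7.5 nL into about 7.5 µL; 0% = neutral wells and 100% = wells with inactivated enzyme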
Target sequence (P55789 whole entry, looked up): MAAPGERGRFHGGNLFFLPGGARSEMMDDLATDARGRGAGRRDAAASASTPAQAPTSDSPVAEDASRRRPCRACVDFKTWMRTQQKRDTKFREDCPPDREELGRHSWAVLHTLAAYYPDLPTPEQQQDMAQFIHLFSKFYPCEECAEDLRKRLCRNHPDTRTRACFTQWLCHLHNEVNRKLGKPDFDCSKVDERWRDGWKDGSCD
E coli growth: E. coli growth inhibition. Escherichia coli growth, OD600, 23 h; stronger effect = lower value. OD600 absorbance (test concentration not listed). 330,000 tested, 0.21% active;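 active = OD600 absorbance below the run mean of sample wells minus 3.6 SD, in any replicate, cut at about 0.56 in these data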;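 also: stock transfer was 300 nL into about 60 µL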
Ecoli rRNA inh OD600: second read-out of Ecoli rRNA inh, no call of its own (marks repeat the call); OD600 change, %; measured here: OD600 growth;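 optical density of the mix in the first replicate; 0 = DMSO median and -100 = no signal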
Ecoli rRNA inh RFP: also measured in Ecoli rRNA inh; calls as there; RFP signal change, %; measured here: RFP humanized mutant strains;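 first replicate; 0 = DMSO median and -100 = no signal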
* hit, by the source's call; i = inactive; ? = inconclusive; nt = no result given; + = active, no number.

SMILES | FGF22 binding | HNF4A DNA FP | UCH37 DUB inh | Ecoli rRNA inh | Ecoli rRNA inh OD600 | Ecoli rRNA inh RFP | Beta2AR agonist | ALR H2O2 inh | E coli growth
CC(C)[N+](C)(CCC(C(N)=O)(c1ccccc1)c1ccccc1)C(C)C | i | 0.4 | 1.8 | -5.1 | -1.9 | 0.8 | -0.3 | -12.7 | 0.682
CNC(=O)Oc1ccccc1C1CCCCC1 | nt | -7.9 | 1.5 | -3.4 | -8.2 | 1.6 | -0.9 | nt | 0.719
CCC(C#N)(CC)P(=S)(c1ccccc1)c1ccccc1 | i | 1.1 | 5.4 | -19.4 | -20.0 | -2.2 | 4.3 | -0.3 | 0.691
CC1CCCC(NC(=O)COC(=O)Cc2ccccc2)C1C (centres undefined) | nt | -1.6 | -1.7 | nt | nt | nt | -7.4 | -0.9 | 0.648
O=C(CN1CC(c2ccccc2)CC1=O)Nc1cccc(F)c1 (centres undefined) | i | 4.4 | 0.9 | 4.5 | -0.8 | 0.4 | -6.4 | -19.7 | 0.752
CCCCCn1c(=O)c(C(=O)Nc2cccc(C)c2)c(O)c2ccccc21 | i | -0.8 | -17.2 | -0.1 | 5.5 | -1.8 | 7.6 | 3.2 | 0.711
Cn1cc(C(=O)OCC(=O)N2CCCCC2)c2ccccc21 | i | 3.5 | 3.5 | 3.7 | 11.1 | -0.2 | -8.1 | nt | 0.665
CCC(=O)C(CCN1CCOCC1)(c1ccccc1)c1ccccc1 | i | 1.6 | 0.2 | 1.6 | -2.8 | -1.6 | -1.1 | -1.1 | 0.636
COc1ccc(N2C(=O)NC(=O)/C(=C\c3ccc([N+](=O)[O-])s3)C2=O)cc1 | i | 0.3 | 9.1 | -2.0 | -7.0 | 8.4 | 10.1 | 7.3 | 0.474*
Cc1n[nH]c(C)c1CCN | nt | 0.6 | -0.2 | nt | nt | nt | -3.2 | 2.8 | 0.783
N#Cc1c(N2CCNCC2)nc(-c2ccco2)c2c1CCCC2 | + | 4.4 | -91.5 | -6.9 | 1.1 | 2.9 | 2.7 | -4.2 | 0.585
COC(=O)C1=C(c2ccc(OCc3ccccc3)cc2)C[C@@H]2CC[C@H]1N2C(=O)NCCCc1ccccc1 | i | 2.2 | -0.4 | 27.0 | 29.4 | -5.1 | -4.5 | -6.0 | nt
O=C(Cc1ccccc1)OCCN1CCOCC1 | i | 0.1 | 1.9 | 25.4 | 9.0 | -6.7 | -0.6 | 1.4 | 0.594
O=C1/C(=C/c2ccccc2Cl)N2CCC1CC2 | i | -3.2 | 6.9 | -6.9 | 1.4 | 1.4 | -7.4 | -6.2 | 0.725
O=[N+]([O-])c1cnc[nH]1 | i | 0.5 | 1.4 | nt | nt | nt | 8.6 | -7.6 | 0.692
C[C@]12CCC3C(CC[C@H]4C[C@@H](O)CC[C@]34C)C1CC[C@@H]2N (some centres undefined) | i | -1.6 | 2.2 | -5.1 | -8.0 | 0.9 | 4.7 | -12.7 | 0.642
Oc1cc2c(cc1CN1CCN(c3ccccc3F)CC1)OCO2 | i | -1.7 | 2.5 | -7.7 | -9.4 | -1.5 | 12.5 | -25.6 | 0.652
CS(=O)(=O)c1ccc(C2=C(CNC(=O)c3cccs3)[C@H]3CC[C@@H](C2)N3Cc2ccco2)cc1 | i | 1.4 | nt | 8.5 | 12.6 | 0.1 | nt | nt | nt
NC(Cc1ccc(Cl)cc1)c1csc(Nc2cnccn2)n1 (centres undefined) | i | 0.3 | nt | -29.6 | -58.2 | 36.3 | nt | nt | nt
CCC(=O)Nc1ccccc1 | i | 0.4 | 1.8 | nt | nt | nt | -2.1 | -15.7 | 0.774
COC(=O)C1=C(c2ccc(OC)c(OC)c2)C[C@@H]2CC[C@H]1N2C(=O)NCCO | i | -2.5 | 1.1 | 12.8 | 11.2 | 1.6 | 2.0 | -0.9 | nt
O=C(O)C(O)(c1ccccc1)C1CCCC1 (centres undefined) | nt | -1.5 | -1.2 | nt | nt | nt | 2.5 | -4.0 | 0.782
CNCC(=O)c1ccccc1 | nt | -1.0 | 4.3 | nt | nt | nt | nt | 12.5 | 0.785
O=C(CF)N(O)c1ccc(C=Cc2ccccc2)cc1 | i | -1.7 | nt | -5.4 | 0.0 | 0.4 | 1.2 | nt | nt
C=C1C/C(=C/C)C(=O)O[C@@H]2CCN3CC=C(COC(=O)[C@]1(C)O)[C@H]23 | i | -0.3 | 0.8 | 8.9 | 11.0 | -0.1 | 4.6 | 0.5 | 0.678
O=c1[nH]c(=O)n(-c2ccccc2)c(O)c1/C=C/C=Nc1ccccc1 | nt | 150.8 | -0.6 | nt | nt | nt | -8.7 | -0.2 | nt
O=c1[nH]c(CN2CC=C(c3ccccc3)CC2)nc2scc(-c3cccs3)c12 | i | 10.7 | -0.5 | -3.2 | -2.3 | 0.3 | 19.2 | -5.9 | 0.722
O=[N+]([O-])c1oc2ccc3ccccc3c2c1CCO | i | 1.5 | nt | -56.5 | -79.9 | -19.6 | -5.8 | nt | nt
COC(=O)C1=C(c2cccc(OC)c2OC)C[C@@H]2CC[C@H]1N2C(=O)NC1CC1 | i | -1.3 | 3.7 | 4.8 | 15.2 | -0.9 | 15.4 | nt | nt
NC(=O)c1cc(N2CC2)c([N+](=O)[O-])cc1[N+](=O)[O-] | i | -5.4 | 3.7 | nt | nt | nt | 1.0 | -40.1 | 0.65
COc1ccccc1OCC#CCN1CCCCCC1 | i | -0.7 | -1.0 | 16.2 | 10.4 | 0.8 | 4.7 | -6.0 | 0.709
CCOC(=O)CN1C(=O)C2(C(C#N)=C(N)Oc3ccccc32)C(C(=O)OC)=C1C (centres undefined) | nt | -2.6 | 2.1 | nt | nt | nt | 1.6 | nt | 0.809
O=C1CC(c2cccnc2)=NN1c1ccccc1 | i | -6.7 | 0.9 | -2.3 | 5.1 | -5.6 | -2.9 | -34.9 | 0.62
COc1ccc(CCNCc2ccccc2F)cc1 | i | 4.2 | 3.6 | 0.9 | 6.5 | -2.6 | -6.6 | -19.7 | 0.668
N#CC(c1cccnc1)N1CCOCC1 (centres undefined) | i | -1.7 | 5.6 | 17.1 | 16.1 | 3.2 | 8.6 | -6.0 | 0.681
Cc1cccc(N2C(=O)CN(Cc3ccccc3)C2=S)c1 | i | -1.9 | 2.2 | -14.5* | 3.0* | 3.8* | -3.4 | -11.5 | 0.662
COc1ccc2c(C)c(CC(=O)N3C[C@H]4C[C@@H](C3)c3cccc(=O)n3C4)c(=O)oc2c1 | i | 1.8 | -155.0 | 7.0 | 17.4 | -0.1 | 0.7 | -4.3 | 0.706
CN1C(=O)C(Cc2cccc3ccccc23)C(=O)N(C)C1=O | nt | -0.3 | 40.3* | nt | nt | nt | 4.0 | 22.9 | 0.652
CCCCCn1c(=O)c(C(=O)Nc2c(C)n(C)n(-c3ccccc3)c2=O)c(O)c2ccccc21 | nt | -1.2 | 0.8 | nt | nt | nt | -4.7 | -3.9 | 0.723
CCC[C@H](N[C@@H](CCC)[C@H](O)c1ccccc1)[C@H](O)c1ccccc1 | i | 0.3 | 2.1 | -11.4 | -2.9 | -1.3 | -6.4 | -19.4 | 0.676

Brought forward from above: 5 compounds; new compounds follow.
SMILES | FGF22 binding | HNF4A DNA FP | UCH37 DUB inh | Ecoli rRNA inh | Ecoli rRNA inh OD600 | Ecoli rRNA inh RFP | Beta2AR agonist | ALR H2O2 inh | E coli growth
Cc1cccc(N2C(=O)CN(Cc3ccccc3)C2=S)c1 | i | -1.9 | 2.2 | -14.5* | 3.0* | 3.8* | -3.4 | -11.5 | 0.662
COc1ccc2c(C)c(CC(=O)N3C[C@H]4C[C@@H](C3)c3cccc(=O)n3C4)c(=O)oc2c1 | i | 1.8 | -155.0 | 7.0 | 17.4 | -0.1 | 0.7 | -4.3 | 0.706
CN1C(=O)C(Cc2cccc3ccccc23)C(=O)N(C)C1=O | nt | -0.3 | 40.3* | nt | nt | nt | 4.0 | 22.9 | 0.652
CCCCCn1c(=O)c(C(=O)Nc2c(C)n(C)n(-c3ccccc3)c2=O)c(O)c2ccccc21 | nt | -1.2 | 0.8 | nt | nt | nt | -4.7 | -3.9 | 0.723
CCC[C@H](N[C@@H](CCC)[C@H](O)c1ccccc1)[C@H](O)c1ccccc1 | i | 0.3 | 2.1 | -11.4 | -2.9 | -1.3 | -6.4 | -19.4 | 0.676
CC(CN(C)C1CCN(C)CC1)c1ccccc1 (centres undefined) | i | -3.9 | 5.3 | 28.2 | 14.8 | 3.3 | 4.0 | -6.4 | 0.667
CCCCNC(=S)N1CCn2cccc2C1c1cccnc1 (centres undefined) | i | 0.3 | 4.2 | 1.7 | 8.7 | 7.0 | 2.2 | nt | 0.696
CCCCCCCSc1cc(OC)c(CCNC)cc1OC | nt | 3.9 | 5.0 | nt | nt | nt | 32.5 | -12.6 | 0.684
CCCCCCC[n+]1ccc(-c2cc[n+](CCCCCCC)cc2)cc1 | i | 2.9 | 7.3 | -12.6 | -36.0 | 8.6 | -7.9 | -1.5 | 0.539
COc1cc(C(=O)OC2C[C@H]3CC[C@@H](C2)N3C)ccc1O (some centres undefined) | i | 2.1 | 1.2 | 10.9 | 13.4 | 0.6 | -14.8 | 68.0 | 0.702
CCOC(=O)c1cc2c(cn1)[C@H](CCO)NC2 | i | -2.2 | 0.7 | 2.9 | 20.6 | 5.8 | -5.8 | nt | 0.694
CCOC(=O)C1(c2ccccc2)CCN(CCC(=O)Nc2ccc(C(=O)OC)cc2)CC1 | i | -4.0 | 0.4 | -9.7 | -12.1 | 0.1 | 1.5 | -6.1 | 0.664
COc1ccc(C=O)cc1O | i | -4.7 | 2.1 | 2.2 | -2.2 | -1.9 | -2.8 | 2.8 | 0.664
O=c1[nH]c(=O)n(C2CCCCC2)c(O)c1C=NCCCn1ccnc1 | nt | 0.7 | 0.4 | nt | nt | nt | nt | 1.8 | 0.681
CCCCOCCCn1c(N)c(C(=O)OCCOC)c2nc3ccccc3nc21 | nt | 0.7 | i | nt | nt | nt | 6.2 | 2.8 | 0.802
CCCCCCNc1nc(OC)nc(N2CC3CC(C2)c2cccc(=O)n2C3)n1 (centres undefined) | i | 0.7 | 1.9 | -23.1 | -31.2 | -5.4 | -1.9 | 1.3 | 0.73
Cc1ccc(-c2nc3ccc(Cl)cc3n2OC(=O)N(C)C)cc1 | nt | 2.2 | 0.3 | nt | nt | nt | 6.2 | -3.6 | 0.703
CC(C)NS(=O)(=O)c1ccc(OCC(=O)N2CCN(Cc3ccccc3)CC2)cc1 | nt | -7.1 | 2.9 | nt | nt | nt | 6.8 | 0.4 | 0.635
O=CC(Br)P(=O)(N1CCOCC1)N1CCOCC1 (centres undefined) | i | -2.8 | -0.1 | 2.9 | -0.1 | -1.0 | 0.1 | nt | 0.684
O=C1NC(=O)N(Cc2ccc(F)cc2)C(=O)/C1=C/c1cccs1 | i | -3.0 | 3.6 | 4.8 | -12.2 | 3.8 | 21.8 | ? | 0.698
CCOC(=O)C(O)(c1cn(C)c2ccccc12)C(F)(F)F (centres undefined) | nt | 2.1 | 2.8 | nt | nt | nt | 19.6 | nt | 0.726
Cc1nc2ccc(Br)cc2c(=O)n1-c1ccc([N+](=O)[O-])c(C(F)(F)F)c1 | i | 1.7 | 3.3 | -19.3* | -0.8* | -2.6* | 2.0 | -0.9 | 0.704
CC1([N+](=O)[O-])COP(=O)(Nc2ccccc2F)OC1 (centres undefined) | nt | -2.2 | nt | 7.6 | 21.0 | -0.9 | 0.2 | nt | nt

Some of the compounds tested (hit frequency here may not be typical).
